# Assay outcomes from PubChem BioAssay.
# HNF4A DNA FP: change in binding of human HNF4 alpha to DNA; P41235; HNF4a-FITC DNA binding, fluorescence polarization, 1 h; activity change, % at 10 µM; hit rate 0.3% among 360,000; AID 1224865; in the data active = activity change above about 30%, passing the limit was not always enough;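 note: controls were the assay level and a saturating level of protein; the project sought stronger binding though the title names inhibitors; some compounds called inactive have numbers as strong as hits; positive values seem to mean higher polarization but the record does not say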
# Ecoli growth: inhibitors of Escherichia coli growth; OD600, 23 h; stronger effect = lower value; OD600 absorbance (no concentration beside the values); hit rate 0.21% among 330,000; AID 1053175;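 active = OD600 absorbance below the run mean of sample wells minus 3.6 SD, in any replicate, cut at about 0.56 in these data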;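 note: stock transfer was 300 nL into about 60 µL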
# UCH37 DUB inh: inhibitors of human deubiquitinating enzyme UCH37. hit rate 0.33% among 330,000. inhibition, % (no concentration beside the values). purified proteasome/UCH37, Ub-AMC cleavage fluorescence. Q9Y5K5;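 active = mean of two replicates above 20%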;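 note: 0% = compound-free wells with enzyme and 100% = wells lacking proteasome; stock transfer was 100 nL into about 20 µL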
# Target sequence (Q9Y5K5 whole entry, looked up): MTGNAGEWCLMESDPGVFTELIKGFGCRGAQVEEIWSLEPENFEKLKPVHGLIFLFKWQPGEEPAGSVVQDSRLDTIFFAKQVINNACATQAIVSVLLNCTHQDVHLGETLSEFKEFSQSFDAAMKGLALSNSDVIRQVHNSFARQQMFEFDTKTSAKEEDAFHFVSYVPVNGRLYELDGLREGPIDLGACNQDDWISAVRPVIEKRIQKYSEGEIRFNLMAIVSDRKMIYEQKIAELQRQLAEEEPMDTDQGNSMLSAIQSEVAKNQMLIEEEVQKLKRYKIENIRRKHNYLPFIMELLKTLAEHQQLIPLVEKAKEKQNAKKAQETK
#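 System: Proteasome-associated human UCH37 deubiquitinase; Input: 0.15 nM proteasome in added enzyme buffer; Also added: Ub-AMC substrate from 1 µM stock; Incubation: 30 min compound-proteasome preincubation then 25 min substrate reaction, room temperature; Detection: fluorescence, ex 355 nm, em 460 nm; Read-out: % inhibition of Ub-AMC cleavage fluorescence; Benchmarks: no-proteasome and no-compound wells.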
# RanGTP-Imp inh: inhibitors of RanGTP-importin-beta interaction, primary screen, biochemical, FRET, CFP-Ran, YFP-importin-beta, homogeneous; inhibition, % (no concentration beside the values); hit rate 1.1% among 300,000; cell-free CFP-Ran/YFP-importin-beta FRET ratio; AID 2216;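 active = most replicates above 15%; inconclusive = exactly half above 15%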;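 note: 0% = DMSO wells and 100% = Ran loaded with GDP instead of GTP; wells of about 40 µL received 100 nL stock; the first replicate is given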
# FGF22 binding: binders of recombinant human FGF22 by thermal shift; SYPRO orange fluorescence; percent of sucrose octasulfate shift, DMSO zero; AID 651658; hit rate 1.5% among 340,000; Q9HCT0; calls only at 9.99 µM;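 active = melting point raised past a set limit in the mean and every replicate; inconclusive = no clear call; three in four hits are not shown here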
# Target sequence (Q9HCT0 whole entry, looked up): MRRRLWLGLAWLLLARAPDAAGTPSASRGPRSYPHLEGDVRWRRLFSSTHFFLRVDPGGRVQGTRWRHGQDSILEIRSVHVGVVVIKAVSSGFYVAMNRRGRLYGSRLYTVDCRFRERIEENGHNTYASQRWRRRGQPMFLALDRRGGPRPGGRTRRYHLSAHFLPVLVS
# Vif A3G: inhibitors of Vif binding to APOBEC3G peptide, primary screen, biochemical, TR-FRET, GST-Vif 1-94, biotin-A3G peptide, dose response retest (AID 1117319); inhibition, %, or IC50 in µM where a hit was titrated; TR-FRET GST-Vif / biotin-A3G peptide binding; higher % means a stronger effect; test concentration not given here; strong numbers were not always called active; hit rate 0.57% among 260,000;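 active = above the screen mean plus three standard deviations and confirmed in dose response; inconclusive = results disagree or hit not tested in dose response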;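 note: Vif residues 1-94 fused to GST binding biotinylated APOBEC3G peptide 110-148; 0% = full assay without inhibitor and 100% = GST in place of GST-Vif; retest series ran down from 100 µM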
# MLL AF4-AF9 inh: blocks AF4 peptide binding to human AF9; P42568; AlphaScreen, biotin-AF4 peptide binding to FLAG-AF9; inhibition, % at 10 µM; hit rate 0.47% among 350,000; AID 651704;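 active = every replicate reaching a set inhibition limit, whatever the replicate mean, cut at about 25% in these data; inconclusive = mean inhibition reaches that limit but some replicates miss it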;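 note: 0% = plate neutral control median and 100% = total signal loss; the record names both 10 and 1 µM as test concentration; the first replicate is given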
# Target sequence (P42568 whole entry, looked up): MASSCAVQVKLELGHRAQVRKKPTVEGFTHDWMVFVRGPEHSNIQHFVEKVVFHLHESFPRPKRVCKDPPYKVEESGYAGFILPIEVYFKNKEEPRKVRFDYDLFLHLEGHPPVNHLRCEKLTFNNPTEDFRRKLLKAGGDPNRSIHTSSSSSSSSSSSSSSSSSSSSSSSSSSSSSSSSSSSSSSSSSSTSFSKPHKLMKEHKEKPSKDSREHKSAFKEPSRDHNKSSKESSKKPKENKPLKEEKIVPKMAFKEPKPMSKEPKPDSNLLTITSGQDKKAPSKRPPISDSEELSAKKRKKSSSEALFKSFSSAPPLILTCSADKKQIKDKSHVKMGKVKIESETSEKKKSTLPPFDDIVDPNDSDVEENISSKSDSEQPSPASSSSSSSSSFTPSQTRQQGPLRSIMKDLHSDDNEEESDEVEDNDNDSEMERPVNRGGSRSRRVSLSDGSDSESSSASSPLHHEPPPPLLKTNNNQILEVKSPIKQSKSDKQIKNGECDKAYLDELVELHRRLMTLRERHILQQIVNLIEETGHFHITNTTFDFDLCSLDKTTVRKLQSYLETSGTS
# Active calls of the source: *; i = inactive; ? = inconclusive; . = not tested or not shown; + = active, no number; & = joins results of further samples. These rows are one share of the data; count on the stated rates, not on these rows.
SMILES,HNF4A DNA FP,Ecoli growth,UCH37 DUB inh,RanGTP-Imp inh,FGF22 binding,Vif A3G,MLL AF4-AF9 inh
CC(C)N1CCN(Cc2c[nH]c3ccccc23)CC1CCO (stereo unspecified),-3.3,0.661,3.3,3.9,i,.,0.3
CCOC(=O)C1(Cc2ccc(Cl)cc2)CCN(C(C)CCn2cccn2)CC1 (stereo unspecified),-5.0,0.69,3.1,0.4,i,.,0.6
CCOc1ccc(CNCCc2ccc3c(c2)OCO3)cc1,3.9,0.647,1.5,-0.2,i,-3.4%,-0.2
COc1ccccc1/C=N/N=C(/N)N[N+](=O)[O-],-0.1,.,.,-2.5,i,0.3%,-1.7
O=C(Cn1ncc2ccccc21)N1CCC2(CC1)OCCO2,-2.0,0.681,0.8,1.6,i,13.6%,0.6
CC1CN(O)C2CCc3nonc3C12O (stereo unspecified),0.9,.,2.5,-0.4,.,6.4%,.
COc1ccc(OCC(=O)N2CCN(C3CCC(c4ccccc4)CC3)CC2)cc1 (stereo unspecified),-4.1,0.65,0.2,-4.4,i,21.5%,3.6
CC/C(=N\NC(=O)Nc1ccccc1)c1c(O)n(Cc2ccccc2)c(=O)[nH]c1=O,2.6,0.672,5.4,3.5,i,-4.3%,6.7
CC1CCC/C=C/C2CC(O)CC2C(O)/C=C/C(=O)O1 (stereo unspecified),0.3,.,.,-0.2,.,2.9%,.
CCCCn1c(=O)c(C(=O)NCc2ccncc2)c(O)c2ccccc21,4.1,0.708,0.2,0.8,.,4.3%,.
COc1ccc(C(=O)c2nc3ccccc3n2C(C)C)cc1,-2.9,0.627,1.4,3.6,.,.,0.6
COC(=O)C1(C(=O)O)Cc2cc([N+](=O)[O-])ccc2N2CCCC21 (stereo unspecified),8.8,0.684,17.8,-8.6,i,.,4.8
COC(=O)C1=C(c2ccc(F)cc2OCc2ccccc2)C[C@@H]2CC[C@H]1N2C(=O)NCc1ccccc1Br,-12.4,.,2.4,.,i,.,0.8
COc1ccc(C2N3CC(C)(C)CN23)cc1 (stereo unspecified),.,0.713,2.7,0.5,.,3.3%,.
OC12Oc3ccccc3C=C1N1CCC2CC1 (stereo unspecified),2.4,0.69,1.3,-1.7,.,-0.7%,.
CCOC(=O)c1c(C)n(Cc2ccccc2)c2ccc(OCC(O)Cn3nc(C)nc3C)cc12 (stereo unspecified),6.5,0.767,0.8,1.3,i,-4.7%,0.6
C#C[C@]1(O)CC[C@H]2[C@@H]3[C@H](O)C[C@H]4C[C@@H](O)CC[C@]4(C)[C@H]3CC[C@@]21C,2.7,.,.,.,i,.,-5.6
Cc1ccc(C(O)P(=O)(Oc2ccccc2)Oc2ccccc2)cc1 (stereo unspecified),-0.8,0.707,0.8,-0.6,i,.,3.1
C=C(c1ccccc1)P(=O)(O)O,2.1,0.681,2.1,?,.,?,.
O=C(CN1CCN(Cc2cccc(Cl)c2)C1=O)N1CCC2(CC1)OCCO2,-0.2,0.783,1.3,6.0,.,17.3%,.
Cc1cc(C(=O)N2CCC3(CC2)OCCO3)no1,-1.7,0.716,0.0,2.6,i,-7.5%,0.0
CC(C)COC(=O)N1Cc2ccccc2-n2nncc2C1,-3.7,.,.,.,i,4.2%,-2.6
Cc1cc(OCC(=O)NC(Cc2ccc(Cl)cc2)C(=O)O)c2c3c(c(=O)oc2c1)CCC3 (stereo unspecified),0.0,0.735,-103.7,0.5,+,.,-0.8
C=CCOC(=O)C1=C(C)OC(N)=C(C(=O)OCC)C12C(=O)N(CC(N)=O)c1ccccc12 (stereo unspecified),1.9,0.713,4.3,3.0,.,-1.6%,.
COc1cccc(C(=O)C2CCCN(Cc3ccc(F)cc3)C2)c1 (stereo unspecified),-0.7,0.683,0.6,?,i,.,-1.6
CCOC(=O)c1c(C)n(COCCO)c2ccc(O)cc12,-1.3,0.626,2.1,1.8,.,2.1%,.
CCOc1c(Cl)cc(CNC(C)C(O)c2ccccc2)cc1OC (stereo unspecified),1.3,0.669,3.7,-3.6,i,-2.0%,10.9
N=Cc1c(O)n(-c2ccccc2)c(=O)n(-c2ccccc2)c1=O,2.2,0.685,3.7,-2.8,i,-2.8%,-3.9
Cc1ccsc1C(=O)C1CCCN(CCO)C1 (stereo unspecified),-9.6,0.638,5.6,-0.3,i,-11.7%,0.4
COc1ccccc1-n1c(CNCC2CCCO2)nc2ccccc2c1=O (stereo unspecified),1.8,0.625,2.7,-5.1,i,4.4%,-2.7
C/C=C1\NC(=O)[C@H](C)NC(=O)[C@@H](NC(=O)[C@H](Cc2ccc(O)cc2)NC(=O)[C@@H](NC(=O)/C(C)=C/C)C(C)C)[C@@H](C)OC(=O)[C@H](CCCc2ccc(O)cc2)NC(=O)[C@@H](CCC(=O)O)NC1=O,1.0,.,.,.,i,.,0.1
Cc1ccccc1-c1nc2ccccc2c(=O)n1C,1.8,0.674,1.9,4.0,i,.,6.2
COc1ccc(-n2c(O)c(/C(C)=N/Nc3ccccc3)c(=O)[nH]c2=O)cc1,5.0,0.63,7.0,2.1,i,.,-0.2
O=[N+]([O-])c1ccc(Nc2ccccc2)cc1,2.8,0.625,3.6,-0.4,i,.,7.2
CCCOC(=O)C1C2c3ccccc3C(c3ccccc32)C1C(=O)O (stereo unspecified),0.1,0.663,0.3,0.1,i,7.0%,-2.5
Cn1ccnc1P(=S)(c1nccn1C)c1nccn1C,0.5,0.639,0.5,1.3,.,2.1%,1.1

# Compound profiles, from the list above. Screens in order: HNF4A DNA FP | Ecoli growth | UCH37 DUB inh | RanGTP-Imp inh | FGF22 binding | Vif A3G | MLL AF4-AF9 inh
# Results for CCOC(=O)c1c(C)n(COCCO)c2ccc(O)cc12 : -1.3 | 0.626 | 2.1 | 1.8 | . | 2.1% | .
# Results for Cc1ccccc1-c1nc2ccccc2c(=O)n1C : 1.8 | 0.674 | 1.9 | 4.0 | i | . | 6.2
# Results for CCCOC(=O)C1C2c3ccccc3C(c3ccccc32)C1C(=O)O (stereo unspecified) : 0.1 | 0.663 | 0.3 | 0.1 | i | 7.0% | -2.5
# Results for COc1cccc(C(=O)C2CCCN(Cc3ccc(F)cc3)C2)c1 (stereo unspecified) : -0.7 | 0.683 | 0.6 | ? | i | . | -1.6
# Results for Cn1ccnc1P(=S)(c1nccn1C)c1nccn1C : 0.5 | 0.639 | 0.5 | 1.3 | . | 2.1% | 1.1

# Next part
SMILES,HNF4A DNA FP,Ecoli growth,UCH37 DUB inh,RanGTP-Imp inh,FGF22 binding,Vif A3G,MLL AF4-AF9 inh
CCOc1cc2c(cc1OCC)-n1cccc1C(c1ccc(C(C)C)cc1)NC2 (stereo unspecified),-1.1,0.664,5.1,-0.6,i,4.2%,3.5
Clc1ccc(C(c2ccc(Cl)cc2)n2cc[n+](CC(OCc3ccc(Cl)cc3Cl)c3ccc(Cl)cc3Cl)c2)cc1 (stereo unspecified),11.0,0.094*,10.1,.,i,.,16.7
O=S(=O)(c1ccc(Cl)cc1Cl)N1CCCC1c1cccnc1 (stereo unspecified),-4.4,0.594,2.6,0.0,i,12.8%,.
c1cc2c(cc1N1CCCCC1)C1CC2CCN1 (stereo unspecified),6.0,.,.,.,i,2.7%,?
O=C(CN1CCN(C(=O)COc2cccc(F)c2)CC1)Nc1ccc(Cl)c(C(F)(F)F)c1,-2.1,0.664,4.3,.,i,-12.5%,-0.4
CCN1C(=O)/C(=C/c2ccc3c(c2)CCN3CCCCl)C(=O)NC1=S,-24.1,0.665,2.8,24.8,i,?,2.6
CN(C)C(CNC(=O)Cc1c(Cl)cccc1Cl)c1ccccc1 (stereo unspecified),-0.9,0.697,0.5,2.2,i,.,1.4
C=CCn1c(O)c(C(CC)=NCCCO)c(=O)[nH]c1=O,2.0,0.712,5.0,-4.1,.,-6.3%,.
COC(=O)C1=C(c2cc3ccccc3o2)C[C@@H]2CC[C@H]1N2C(=O)NCCNC(C)=O,-0.6,.,1.1,-0.8,i,.,-1.2
COC(=O)C1=C(c2ccc(Cl)c(C(F)(F)F)c2)C[C@@H]2CC[C@H]1N2C(=O)NC(C)C,1.4,.,0.7,.,i,.,-3.8
COC(=O)C1=C(c2c(C)noc2C)C[C@@H]2CC[C@H]1N2C(=O)NCCO,-1.7,0.797,-0.5,.,.,.,.
O=C(CN1CCCCC1)c1ccc2c(c1)OCO2,-0.4,0.633,-1.1,-5.5,i,3.4%,-1.2

# 2 compounds drawn at random from the list so far:
SMILES,HNF4A DNA FP,Ecoli growth,UCH37 DUB inh,RanGTP-Imp inh,FGF22 binding,Vif A3G,MLL AF4-AF9 inh
OC12Oc3ccccc3C=C1N1CCC2CC1 (stereo unspecified),2.4,0.69,1.3,-1.7,.,-0.7%,.
O=[N+]([O-])c1ccc(Nc2ccccc2)cc1,2.8,0.625,3.6,-0.4,i,.,7.2

# Next structures:
SMILES,HNF4A DNA FP,Ecoli growth,UCH37 DUB inh,RanGTP-Imp inh,FGF22 binding,Vif A3G,MLL AF4-AF9 inh
CC(C)N1C(=O)CCC1C(=O)N1CCC2(CC1)OCCO2 (stereo unspecified),-1.8,0.717,1.4,?,.,-1.2%,.
CCN(CC)c1ccc(CN2CC=C(c3ccc(F)cc3)CC2)cc1,0.2,0.696,-6.7,-4.9,.,6.5%,.
CCOc1cccc(C2NCc3ccccc3-n3cccc32)c1O (stereo unspecified),2.0,0.695,0.6,-1.9,.,-1.8%,.
CC1=NN(c2ccccc2)C(=O)C1/C=C1/C(=O)NC(=O)N(c2cc(C)cc(C)c2)C1=O (stereo unspecified),2.4,.,2.6,3.8,.,-3.7%,.
CC1N=C(c2ccccc2)c2cc(Br)ccc2NC1=O (stereo unspecified),-3.5,0.676,2.5,0.3,i,1.8%,2.1
Nc1ncc(P(=S)(N2CCOCC2)N2CCOCC2)s1,2.2,0.772,0.8,1.7,.,?,.
Cn1cc(C(=O)N2CCCCC2)c2ccccc21,0.4,0.7,5.5,-8.4,i,-12.0%,-0.2
C[C@@H]1CN([C@H](C)CO)C(=O)CCCn2nncc2CO[C@@H]1CN(C)C(=O)Oc1cccc2ccccc12,-1.8,.,.,.,i,3.3%,-3.7&-0.7&2.3
Cn1c(O)c(C=NCCN2CCNCC2)c(=O)n(C)c1=O,-2.1,0.671,4.0,-2.6,.,24.1%,.
CCN(CC)P(=O)(Oc1ccccc1)Oc1ccccc1,-1.9,0.658,2.0,-0.4,i,3.5%,-0.9
Cc1cccc(C2=NCC(=O)N(CC(=O)NCc3ccco3)c3sc4c(c32)CCCC4)c1,3.0,0.684,2.5,-0.8,.,3.3%&-1.4%,.
CCc1ccc(CN2CCN(Cc3cc(Br)ccc3O)CC2)cc1,5.6,0.632,2.7,4.2,.,.,1.3
O=C(CCC(=O)N1CCC2(CC1)OCCO2)Nc1nnc(C2CCCCC2)s1,0.3,0.618,1.3,0.3,i,-11.5%,0.3
O=c1c2ccccc2nc(/C=C/c2ccc(O)cc2)n1-c1ccc(O)cc1,8.5,0.666,-22.9,-3.5,i,8.1%,-5.4
CCc1ccc(OCC(=O)N2CCN(Cc3ccc4c(c3)OCO4)CC2)cc1,3.0,0.693,3.0,3.6,i,-1.8%,-1.6
O=C(CCNC(=O)N1C[C@H]2C[C@@H](C1)c1cccc(=O)n1C2)Nc1cccc(Cl)c1,5.2,0.725,2.4,4.2,.,.,-2.5
